FGF22 binding: binders of human FGF22 protein, primary screen, FGF22 synaptogenesis inhibitor project, biophysical, thermal shift, single point; calls only at 9.99 µM; recombinant FGF22 thermal shift, SYPRO orange fluorescence; percent of sucrose octasulfate shift, DMSO zero; 340,000 tested, 1.5% active; AID 651658, 2012;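 active means melting point raised past a set limit in the mean and every replicate; three in four hits are not shown here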
HNF4A DNA FP: change in binding of human HNF4A to DNA, primary screen, biochemical, fluorescence polarization, FITC-DNA. Hepatocyte nuclear factor 4-alpha (Homo sapiens), P41235. 1 h. activity change, % at 10 µM. 360,000 tested, 0.3% active. AID 1224865, 2016; in the data active means activity change above about 30%, passing the limit was not always enough;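 further: controls were the assay level and a saturating level of protein; the project sought stronger binding though the title names inhibitors; some compounds called inactive have numbers as strong as hits; positive values seem to mean higher polarization but the record does not say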
Target sequence (P41235 whole entry, looked up): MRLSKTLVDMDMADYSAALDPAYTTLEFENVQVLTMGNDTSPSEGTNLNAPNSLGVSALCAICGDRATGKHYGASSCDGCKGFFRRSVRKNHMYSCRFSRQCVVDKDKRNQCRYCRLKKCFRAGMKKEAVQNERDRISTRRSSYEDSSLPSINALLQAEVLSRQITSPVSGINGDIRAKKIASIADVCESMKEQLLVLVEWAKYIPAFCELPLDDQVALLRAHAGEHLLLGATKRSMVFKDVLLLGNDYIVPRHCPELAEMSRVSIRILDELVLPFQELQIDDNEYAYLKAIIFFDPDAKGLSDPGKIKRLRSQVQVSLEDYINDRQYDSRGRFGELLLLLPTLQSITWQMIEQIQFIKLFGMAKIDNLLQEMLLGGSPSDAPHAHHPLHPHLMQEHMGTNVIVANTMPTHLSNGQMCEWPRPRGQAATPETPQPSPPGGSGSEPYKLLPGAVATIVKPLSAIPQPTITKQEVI
E coli growth: E. coli growth inhibition, primary screen, OD600 | 330,000 tested, 0.21% active | OD600 absorbance (test concentration not listed) | AID 1053175, 2014 | Escherichia coli growth, 23 h; stronger effect = lower value;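 active means OD600 absorbance below the run mean of sample wells minus 3.6 SD, in any replicate, cut at about 0.56 in these data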;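 further: stock transfer was 300 nL into about 60 µL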
B2AR ag: beta2AR agonists driving receptor internalization, primary screen, cell-based, FAP fluorogen, flow cytometry. Am2.2-beta2AR cells; reference of the scale not given here. response, % (concentration not given with the values). 340,000 tested, 0.43% active. AID 504454, 2011;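 active means response above a set limit, near 3 SD of response in nonfluorescent compounds, cut at about 42% in these data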;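 further: stock transfer was 100 nL into about 11 µL; a reference agonist was the positive control; negative values mostly stem from fluorescent compounds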
Target sequence (P07550 whole entry, looked up): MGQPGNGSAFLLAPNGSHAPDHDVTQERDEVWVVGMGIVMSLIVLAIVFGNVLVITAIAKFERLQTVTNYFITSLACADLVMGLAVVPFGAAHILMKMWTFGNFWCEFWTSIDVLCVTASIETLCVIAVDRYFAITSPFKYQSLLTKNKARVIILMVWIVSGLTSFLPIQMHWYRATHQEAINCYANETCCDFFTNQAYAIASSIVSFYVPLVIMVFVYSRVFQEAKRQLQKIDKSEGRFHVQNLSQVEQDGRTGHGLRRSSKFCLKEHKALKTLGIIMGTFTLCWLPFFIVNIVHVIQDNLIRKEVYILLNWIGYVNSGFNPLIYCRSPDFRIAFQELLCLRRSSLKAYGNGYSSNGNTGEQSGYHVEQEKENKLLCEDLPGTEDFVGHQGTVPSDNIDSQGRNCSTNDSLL
UCH37 DUB inh: inhibitors of human UCH37 deubiquitinase, primary screen, biochemical, Ub-AMC cleavage, fluorescence. Ubiquitin carboxyl-terminal hydrolase isozyme L5 (Homo sapiens), Q9Y5K5. inhibition, % (test concentration not listed). 330,000 tested, 0.33% active. AID 588478, 2011. purified proteasome/UCH37;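 active means mean of two replicates above 20%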;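 further: 0% = compound-free wells with enzyme and 100% = wells lacking proteasome; stock transfer was 100 nL into about 20 µL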
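system = Proteasome-associated human UCH37 deubiquitinase | amount = 0.15 nM proteasome as dispensed | medium = pH 7.4 Tris-HCl (50 mM) with ovalbumin, ATP-MgCl2, DTT | incubation = 30 min preincubation with enzyme, 25 min cleavage at room temperature | detection = AMC fluorescence 355/460 nm | read-out basis = percent inhibition | controls = no-proteasome and no-compound wells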
ALR H2O2 inh: inhibitors of human ALR sulfhydryl oxidase, primary screen, biochemical, H2O2 detection, HRP-luminol luminescence, single point. 290,000 tested, 3.8% active. purified ALR, DTT oxidation. inhibition, % (concentration not given with the values). FAD-linked sulfhydryl oxidase ALR (Homo sapiens), P55789;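 active means mean and each replicate at 75% or more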;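 further: stock transfer was 7.5 nL into about 7.5 µL; 0% = neutral wells and 100% = wells with inactivated enzyme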
Target sequence (P55789 whole entry, looked up): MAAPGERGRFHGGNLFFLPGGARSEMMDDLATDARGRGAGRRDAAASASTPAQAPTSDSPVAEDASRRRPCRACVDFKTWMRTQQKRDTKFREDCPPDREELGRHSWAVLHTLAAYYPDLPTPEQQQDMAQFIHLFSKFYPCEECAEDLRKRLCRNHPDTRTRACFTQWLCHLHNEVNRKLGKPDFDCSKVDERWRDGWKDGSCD
Ecoli rRNA inh: reduced GFP signal of wild-type E. coli, primary screen, bacterial rRNA inhibitor project, GFP/RFP fluorescence, OD600, single point; GFP signal change (wild-type ribosome), % (test concentration not listed); E. coli WT GFP vs humanized-ribosome RFP mutants, 24 h; stronger effect = lower value; DMSO median 0, no signal -100; AID 720706, 2013; 350,000 tested, 1.6% active;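 active means significant combined selectivity score with lowered wild-type GFP, culture density cut under 30%, mutant RFP and density less affected; inactive means any of these conditions unmet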; further: one replicate is shown; some compounds called inactive have numbers as strong as hits
Ecoli rRNA inh OD600: also measured in Ecoli rRNA inh; calls as there; OD600 change, %; measured here: OD600 growth;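 optical density of the mix in the first replicate; 0 = DMSO median and -100 = no signal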
Ecoli rRNA inh RFP: further read-out of Ecoli rRNA inh, marked with its call; RFP signal change, %; measured here: RFP humanized mutant strains;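 first replicate; 0 = DMSO median and -100 = no signal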
An asterisk follows results filed as active; i = inactive; x = no result given.

SMILES	FGF22 binding	HNF4A DNA FP	E coli growth	B2AR ag	UCH37 DUB inh	ALR H2O2 inh	Ecoli rRNA inh	Ecoli rRNA inh OD600	Ecoli rRNA inh RFP
COc1cc(NC(=O)[C@@H]2CCCN2S(=O)(=O)c2cccc3cccnc23)cc(OC)c1OC	i	-1.6	x	-2.9	0.8	-6.0	-0.3	-7.3	-7.6
Cc1cccc(Cc2cnc(N3C(=N)SC(c4ccccc4)C3=O)s2)c1 (stereo unspecified)	i	-1.2	0.695	10.5	4.5	x	-11.9	-4.0	9.5
N/C(=N\OC(=O)c1ccc(Cl)cc1[N+](=O)[O-])c1ccccn1	i	2.7	x	1.1	x	x	-33.6	-33.7	-2.6
CCCCCOc1ccc(C(=O)NC(CCC)C(=O)O)cc1 (stereo unspecified)	x	1.6	0.757	-7.4	-0.5	-8.0	x	x	x
COc1ccc2c(c1)C(=O)CC(c1ccccc1F)O2 (stereo unspecified)	x	-0.3	0.726	0.6	-16.5	1.8	x	x	x
Cc1ccc(CS(=O)(=O)Cc2ccc(C(=O)NCCc3ccccc3)o2)cc1	i	-0.2	0.599	3.6	0.0	-17.9	2.8	8.0	-1.5
COc1ccc(NS(=O)(=O)c2ccc(O)c(C(=O)OCC(=O)N3CC(C)OC(C)C3)c2)cc1 (stereo unspecified)	x	-2.2	0.789	4.3	5.2	-0.5	x	x	x
CC1CN=C(NC(=O)c2cccc([N+](=O)[O-])c2)S1 (stereo unspecified)	i	-0.2	0.651	2.5	3.3	x	11.0	6.1	3.9
OCC[C@@H]1C[C@@H](O)[C@H](O)[C@]2(CCCc3ccccc3O2)O1	i	-5.0	x	0.0	3.2	16.1	8.0	14.5	2.0
COCCn1c(SCC(=O)NC(=O)NCc2ccccc2)nc2ccccc2c1=O	i	2.0	0.653	-2.2	0.5	0.5	x	x	x
Cn1sc2ccccc2c1=O	x	-0.4	x	x	x	x	3.8	6.3	-7.6
COc1ccc(-c2cc(C(=O)OC3CCOC3=O)c3ccccc3n2)cc1 (stereo unspecified)	x	-1.0	0.699	-0.4	-129.1	-5.0	x	x	x
CCOc1ccc(C(=O)NCC2CCN(CC3CCCCC3)CC2)cc1	i	1.8	0.642	-1.2	0.1	x	10.0	8.4	3.7
CS(=O)(=O)Nc1ccc(C(=O)N2CC(=O)Nc3ccccc32)cc1	i	0.6	0.679	0.3	-2.5	-9.2	2.9	3.5	-5.9
O=C(Nc1c(C(=O)O)[nH]c2ccccc12)c1cccc(C(F)(F)F)c1	i	1.4	0.699	-6.2	7.0	x	-4.2	-5.8	-0.3
CCOc1ccccc1NC(=O)Cn1nnc(C(=O)NCc2cccs2)c1N	i	-0.2	x	20.6	x	-0.2	6.7	11.2	0.7
Cc1nc2c(=O)n(C)c(=O)[nH]c2n1Cc1ccccc1	x	2.8	0.689	3.7	-28.9	-13.3	x	x	x
CC(C)NC(=O)C1(C)CCCN1Cc1ccccc1C#N (stereo unspecified)	i	1.2	x	x	x	x	9.6	13.6	-0.4
COc1ccc2c(c1)CC(C(=O)Nc1ccc(Cl)cc1)/C(=N/O)O2 (stereo unspecified)	i	-0.1	x	-5.2	x	-12.7	-1.7	16.8	-0.8
CCOCCCNC(=O)c1ccc(Cn2c(=S)[nH]c3c([nH]c4ccc(OC)cc43)c2=O)cc1	i	1.2	0.636	6.5	-27.4	8.2	8.6	10.7	2.4
O=C(NCCc1csc(-c2cccnc2)n1)c1cccs1	i	-3.8	0.721	4.9	5.7	-3.4	-2.6	-3.3	-2.4
O=C1NN(c2cccc(Br)c2)C(=O)/C1=C/c1cccs1	i	2.6	0.69	29.9	16.6	2.9	-4.5	0.1	-0.2
CCCCCNCc1ccc(OCc2ccc(Cl)nc2)c(OC)c1	i	0.6	0.669	-9.2	3.0	-2.1	x	x	x
Cn1c(C(C#N)C(=O)Cc2cccc3ccccc23)nc2ccccc21 (stereo unspecified)	x	-1.8	0.721	-1.6	-0.5	-5.6	x	x	x
CC(=O)Oc1ccc(-c2csnn2)cc1	x	2.2	0.741	3.1	-1.3	42.1	x	x	x
Cc1cc(C)cc(C(=O)Nc2ccc(NC(=O)Cc3ccccc3)cc2)c1	i	2.6	0.721	-4.3	5.0	-15.2	27.9	22.1	5.6
O=C(Nc1ccc(F)cc1)Nc1sccc1-c1nc2ccccc2s1	i	17.0	0.646	13.8	-61.5	-7.0	-32.9	-50.7	4.8
Nc1nc(SCC(=O)NC2CCCCC2)[nH]c(=O)c1-c1ccccc1	x	-1.8	0.67	1.3	5.2	-6.7	9.4	13.0	3.7
O=c1c2ccccc2nnn1CSc1nnc(Nc2ccccc2)s1	x	2.6	0.779	-4.1	-2.5	-7.5	x	x	x
COc1ccc(C2=NN(C(=O)c3cccc([N+](=O)[O-])c3)C(c3cccc([N+](=O)[O-])c3)C2)cc1 (stereo unspecified)	x	0.8	0.713	-4.6	7.9	-0.5	x	x	x
Cc1onc(-c2ccccc2Cl)c1C(O)c1ccc(F)cc1 (stereo unspecified)	i	-0.9	0.664	9.8	1.2	10.1	-5.8	-13.7	-1.9
COc1ccc(-n2nc3c(N4CCC(C(=O)N5CCC(C)CC5)CC4)nnc(C)c3c2C)cc1	i	99.3*	0.706	-8.5	-31.6	-3.1	-6.5	-21.3	4.1
COc1cccc(CNc2ncnc3ccc(-c4c(C)noc4C)cc23)c1	i	-1.0	0.697	-5.1	0.2	0.2	-28.0	-47.1	-9.7
COc1ccccc1-c1sc2cc3c(cc2c1C#Cc1ccccn1)OCO3	i	-9.7	0.718	8.0	-8.2	-4.0	8.6	-2.5	-1.1
COc1ccc(-c2c[n+]3c4n2CCCCC4=C(c2ccc(Br)cc2)C3)cc1	x	12.9	0.636	11.2	i	3.8	x	x	x
CCn1nc(C)c(CN2CCN(Cc3cccc(OC)c3)C(CCO)C2)c1C (stereo unspecified)	i	-0.1	0.666	4.8	5.9	-6.9	19.6	14.4	0.7
CC(C)CNC(=S)N1CCC(Cc2ccccc2)CC1	i	1.8	0.637	-7.8	2.0	-16.5	8.2	-29.6	-2.8
COc1cc(C(=O)N/N=C/c2cn(Cc3ccccc3)c3ccccc23)ccc1O	i	1.3	x	-7.2	x	84.6*	-11.4	-18.4	4.0
CC(C)(C)n1nc2c(c1NC(=O)c1c(F)cccc1F)CS(=O)(=O)C2	i	-4.9	0.711	2.6	2.1	-3.0	6.8	10.8	2.0
CC1CN(C(=O)CCNC(=O)c2ccc(Cl)cc2)CC(C)O1 (stereo unspecified)	i	-1.6	0.718	6.2	1.7	-5.7	0.2	2.9	-0.2
N/C(COc1cccc(Cl)c1)=N\NS(=O)(=O)c1ccccc1	x	1.5	0.687	0.2	5.0	32.3	x	x	x
CS(=O)(=O)N1CCN=C1SCc1ccc(F)cc1	i	1.2	0.691	-3.2	1.8	98.4*	5.2	9.0	-2.5
CCOc1cc(CNc2cccc3ccccc23)cc(Br)c1OCC(=O)NC(C)(C)C	x	-3.5	0.705	-9.4	-40.2	-9.7	x	x	x
CN1CCN(c2ncccc2S(=O)(=O)N2CCCCC2)CC1	x	-0.2	0.686	-3.0	1.2	-2.0	x	x	x
COC(=O)c1ccc(CNC(=O)COC(=O)c2cccs2)cc1	i	6.0	0.689	-1.7	-0.6	5.8	1.3	6.7	0.2
COc1ccc(C(=O)Nc2ccc3c(c2)C(=O)N(C)C3=O)cc1OC	x	2.2	0.623	1.9	-7.9	-2.2	x	x	x
COc1ccc2nc(NC(=O)Cn3cnc4c(=O)n(C)c(=O)n(C)c43)sc2c1	x	-0.8	0.674	1.7	0.2	x	x	x	x
CC(=O)n1cc([C@H]2C=C(C(=O)N3CCOCC3)O[C@@H](OCCCCO)C2)c2ccccc21	i	4.6	x	-0.8	2.1	-15.9	-2.4	3.6	4.3

Three entries already listed, arranged by formula weight, low to high.
SMILES	FGF22 binding	HNF4A DNA FP	E coli growth	B2AR ag	UCH37 DUB inh	ALR H2O2 inh	Ecoli rRNA inh	Ecoli rRNA inh OD600	Ecoli rRNA inh RFP
CN1CCN(c2ncccc2S(=O)(=O)N2CCCCC2)CC1	x	-0.2	0.686	-3.0	1.2	-2.0	x	x	x
N/C(COc1cccc(Cl)c1)=N\NS(=O)(=O)c1ccccc1	x	1.5	0.687	0.2	5.0	32.3	x	x	x
COc1ccc2nc(NC(=O)Cn3cnc4c(=O)n(C)c(=O)n(C)c43)sc2c1	x	-0.8	0.674	1.7	0.2	x	x	x	x

Other entries:
SMILES	FGF22 binding	HNF4A DNA FP	E coli growth	B2AR ag	UCH37 DUB inh	ALR H2O2 inh	Ecoli rRNA inh	Ecoli rRNA inh OD600	Ecoli rRNA inh RFP
COc1ccc(C(=O)NC(=S)Nc2cccc(S(=O)(=O)N3CCOCC3)c2)cc1	i	-7.7	0.71	-10.6	1.3	0.2	-12.8	-3.2	4.3
Cc1ccc2c(c1)C1(OCCCO1)C(=O)N2CC#N	i	0.8	0.668	-3.0	4.1	-16.4	0.2	1.9	-0.9
Cc1ccc(C(=O)Cn2nnc(-c3ccccc3-n3cnnn3)n2)cc1	x	-0.1	0.703	-0.7	5.2	-3.1	x	x	x
CC(N)c1csc(Nc2ncccn2)n1 (stereo unspecified)	i	-0.1	x	x	x	x	11.6	23.8	-2.1
C#CCN1C(=O)C(O)(CC(=O)/C=C/c2ccco2)c2ccccc21 (stereo unspecified)	i	-6.1	0.665	-2.6	0.3	10.6	x	x	x
Cc1cc(NC(=O)c2cnn3cccnc23)n(-c2ccccc2)n1	x	2.7	0.748	29.8	-1.4	-4.6	x	x	x
Nc1ccc(Br)c2cccnc12	i	3.6	0.687	2.8	25.1*	-9.9	-16.7	-3.4	-4.6
COc1cc(C)nc2nc(SCc3ccccc3)nn12	x	-2.0	x	-1.1	x	-1.3	x	x	x
Cc1ccc(-c2nn(-c3ccccc3)cc2/C=N/n2c(-c3cccs3)n[nH]c2=S)cc1	i	-0.6	x	2.6	x	-2.2	12.5	23.0	2.7
CC(CN1c2ccccc2Sc2ccccc21)N(C)C (stereo unspecified)	i	2.9	0.684	10.0	1.1	99.0*	-2.1	1.1	1.2
CCn1c(CCNC(=O)c2cccs2)nnc1SCC(=O)c1ccc(OC)cc1	x	6.5	0.706	-6.4	1.6	2.6	x	x	x
COc1ccc(NC(=O)C(c2cc3c(cc2[N+](=O)[O-])OCO3)N(C)c2ccccc2)cc1 (stereo unspecified)	x	1.0	x	-0.3	2.9	-32.3	x	x	x
COc1ccc(NC(C)=O)cc1NC(=O)CSc1nnc(-c2ccccc2)n1N	i	0.9	0.628	2.7	3.3	-5.9	11.6	14.2	-9.5
COC(=O)Oc1c(Br)c(=O)oc2ccccc12	x	2.3	0.674	-0.3	1.1	55.1	x	x	x
O=C1c2ccc(Oc3cccc([N+](=O)[O-])c3)cc2C(=O)N1c1ccccn1	i	-0.2	0.72	2.3	1.2	-14.6	7.4	15.8	1.7
CN(C)CCn1c(=O)n(C2CCCCC2)c(=O)c2c3c(sc21)CCCCC3	i	-1.6	0.619	-5.1	2.1	-22.0	-8.1	-5.0	2.0
Cc1ccc(S(=O)(=O)N2C[C@H]3C(=O)C[C@@H](c4ccc(Cl)cc4)N(S(=O)(=O)c4ccc(C)cc4)[C@H]3C[C@H]2c2ccccc2)cc1	x	3.0	x	x	x	x	2.9	12.6	-0.2
CCCCn1c(=O)[nH]c2nc3cc(NC(C)=O)ccc3nc2c1=O	i	-5.8	0.617	7.5	-20.5	-22.9	4.2	6.1	1.6

Screening results deposited in PubChem by several laboratories.

A portion of the library; count on the stated rates, not on these rows.
